High-throughput results (PubChem)
Sa growth 42C = blocks Staphylococcus aureus growth; S. aureus RN4220 growth, OD600, 20 h, 42 °C; active compounds read low; relative growth, % (concentration not given with the values); 0.53% of 170,000 active; AID 720641;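 active = growth at 42 °C up to 50% and 20 or more points under that at 30 °C, or under 10% at both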;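 note: 300 nL library stock went into each well; scaled to the means of positive and negative controls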
HCMV NEC inh = disrupts HCMV UL50-UL53 complex binding; inhibition, % (test concentration not listed); 0.15% of 190,000 active; HTRF UL50-UL53 interaction, normalized percent inhibition;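 active = both replicates at 50% or more, plus weaker picks with an unusually low signal ratio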;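 note: stock transfer was 100 nL into about 20 µL; 0% = negative control wells and 100% = wells with untagged competitor protein; inactives centre near -12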
GIV Gai3 FP = inhibitors of GIV GBA-motif binding to rat Galpha-i3. 0.42% of 210,000 active. Galpha-i3/FITC-GIV peptide fluorescence polarization, 90 min; active compounds read low; scaled: aluminum fluoride 0%, vehicle 100%. percent of control (FP), % (no concentration beside the values). AID 1224905. P08753;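 active = replicate mean at 85% of control or lower, very high polarization wells dropped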;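 note: wells of about 15 µL received 100 nL stock; the first replicate is given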
Target sequence (P08753 whole entry, looked up): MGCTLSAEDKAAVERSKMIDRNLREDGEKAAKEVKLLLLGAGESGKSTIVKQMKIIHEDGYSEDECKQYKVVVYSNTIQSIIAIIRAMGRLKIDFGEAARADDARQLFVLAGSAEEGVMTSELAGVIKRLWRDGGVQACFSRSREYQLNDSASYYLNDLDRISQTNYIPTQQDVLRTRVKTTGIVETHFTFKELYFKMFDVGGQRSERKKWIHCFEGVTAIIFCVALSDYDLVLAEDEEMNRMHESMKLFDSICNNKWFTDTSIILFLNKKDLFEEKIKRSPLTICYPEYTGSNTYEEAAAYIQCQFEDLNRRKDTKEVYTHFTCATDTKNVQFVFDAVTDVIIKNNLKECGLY
Sa growth 42C second temp = further read-out of Sa growth 42C, marked with its call; relative growth, %; measured here: growth at 30 °C;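 optical density after 20 h as mean of two plates; 100% = untreated growth and lower means inhibition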
* marks the source's active call; other numbers are inactive results; . = not tested or not shown; & = joins results of further samples.

SMILES	Sa growth 42C	Sa growth 42C second temp	HCMV NEC inh	GIV Gai3 FP
CCN1CCCC1CNc1ncnc2c1cnn2-c1ccc(C)cc1 (stereo unspecified)	97	77	-16	98
CN1C(=O)c2cc(C(=O)N3CCCCC3)nn2CC1(C)C(=O)NC1CCCCC1 (stereo unspecified)	.	.	2	103
CN(C)N1C(=O)CC(n2cnc3ccccc32)C1=O (stereo unspecified)	114	98	-29	106
O=C(Cc1ccc2c(c1)OCCO2)Nc1cccc(C(F)(F)F)c1	102	96	-29	.
CCC(CC(=O)NCc1ccc(Cl)cc1Cl)n1ccnc1 (stereo unspecified)	112	99	-8	.
CCN(CC)Cc1nc2c(c(=O)[nH]1)C(CC)(CC)Cc1ccccc1-2	111	71	-15	103
CCOC(=O)c1cn(Cc2ccccc2)c2cc(C)nn2c1=O	89	81	-14	99
CCn1c(=O)cc(OCC(=O)N2CCN(c3cccc(Cl)c3)CC2)c2ccccc21	109	97	12	111
Oc1ccc(O)c(C2CC3CCC2C3)c1 (stereo unspecified)	11	6	-6	103
CC1CC(=O)Nc2ccccc2N1S(=O)(=O)c1ccc(C(F)(F)F)cc1 (stereo unspecified)	104	96	-4	106
Cc1cccc(Cn2cc(C(=O)c3ccccc3)c(=O)c3cc4c(cc32)OCO4)c1	109	90	-47	97
[O-]/[N+](=C\c1ccc(OC(F)F)cc1)c1ccccc1	105	84	-27	107
O=C(CCNc1ccc(Cl)cc1)c1cccs1	91	102	-8	104
CCOc1cc(N2CCOCC2)c(OCC)cc1NC(=O)COC(=O)CN=C1NS(=O)(=O)c2ccccc21	83	81	-27	.
COc1cccc(NC(=O)c2ccc3nc(CCc4ccccc4)oc3c2)c1	114	87	.	98

Fetched one by one from above, three records:
SMILES	Sa growth 42C	Sa growth 42C second temp	HCMV NEC inh	GIV Gai3 FP
O=C(CCNc1ccc(Cl)cc1)c1cccs1	91	102	-8	104
CCN(CC)Cc1nc2c(c(=O)[nH]1)C(CC)(CC)Cc1ccccc1-2	111	71	-15	103
CN(C)N1C(=O)CC(n2cnc3ccccc32)C1=O (stereo unspecified)	114	98	-29	106

Going on with the list:
SMILES	Sa growth 42C	Sa growth 42C second temp	HCMV NEC inh	GIV Gai3 FP
COc1cc(OC)cc(C(=O)Nc2ccc3c(c2)n(C)c(=O)c(=O)n3C)c1	94	92	.	103
Cc1ccc(S(=O)(=O)N/N=C/c2c(O)ccc3oc4c(c23)CCCC4)cc1	127	80	-19	.
CCc1ccccc1NC(=O)C1CCCN(c2nnc(-n3cccc3)s2)C1 (stereo unspecified)	89	67	.	112
COCCNc1oc(-c2cccc(C)c2)nc1C#N	118	91	-16	104
CCNC(=O)c1cccc(NC(=O)Cc2n[nH]c(=O)c3ccccc23)c1	87	93	-14	.
Cc1ccc(NC(=O)C2(NC(=O)c3ccc(-n4cnnn4)cc3)CCCCC2)cc1	107	84	-10	.
CCCC[n+]1cc(-c2ccccc2)nc(N2CCCCC2)n1	6	14	-93	.
Cc1cc(=O)[nH]c(-n2nc(C)cc2NC(=O)COc2ccccc2)n1	.	.	-27	100
CC(C)CC(=O)N1c2nc(C(C)C)nn2C2(CCCCC2)[C@@H]2CCCC[C@@H]21	100	86	-1	101
COc1ccc(N2CCN(C(=O)CCNS(=O)(=O)c3ccc(Br)s3)CC2)cc1	119	91	.	108
COc1ccc2[nH]c3ccccc3c2c1	91	87	-35	100
COc1cc(/C=c2\sc3nc4ccccc4n3c2=O)cc(Cl)c1OCCOc1ccc(C)cc1	.	.	-23	104
Cc1cc(=O)[nH]c(NN=C2CCC(C(C)(C)C)CC2)n1 (stereo unspecified)	103	86	-20	.
COc1ccc2cc3c(nc2c1)N(S(=O)(=O)c1ccc(F)c(C)c1)CC3	.	.	-2	99
Cc1ccc(C(C)C)c(OCCNC(=O)Nc2ccc(Br)cc2)c1	95	91	-7	.
CCOC(=O)C1=C(N)c2ccccc2CC1(C)CC (stereo unspecified)	91	100	.	100
O=C(Cc1ccccc1)N/N=C1/CCS(=O)(=O)c2ccc(F)cc21	99	91	-39	.
CN1CCCN(C(=O)c2cccs2)CC1	102	107	-16	98
Cc1nnc2sc(-c3ccc(F)cc3)nn12	78	84	-22	104
Cc1ccc(S(=O)(=O)C[C@H]2O[C@@H](n3cc(I)c(=O)[nH]c3=O)C[C@@H]2O)cc1	76	87	21	100
O=C(Oc1ccccc1OC(=O)N1CCCCC1)N1CCCCC1	107	86	-5	100
COC(=O)c1ccc2c(=O)[nH]c(COC(=O)c3ccccc3SCC(=O)N3CCCC3)nc2c1	100	86	-7	.
Cc1nn(-c2ccc(F)cc2)c(C)c1/C=C/C(=O)NC(C)(C)C	81	83	-31	.
CC(=O)N(Cc1cccnc1)c1nc2cc(C)cc(C)c2s1	56	8	.	105
CCCNCc1ccc(OCc2ccc3c(c2)n(C)c(=O)n3C)c(OC)c1	.	.	-12	109
Cc1nc2nc(N)nn2c(C)c1CCC(=O)OCc1cccc(Cl)c1	102	82	-5	.
COc1ccc(-c2csc(C)n2)cc1	107	87	-24	101
Cc1cc2[nH]c(=O)cc(C)n2n1	80	78	-17	101
O=C(C1=Cc2sc3c(c2CS1)CCCC3)N1CCCC1	101	31	-67	103
O=C(CCN1C(=O)c2ccccc2S1(=O)=O)N1CCN(c2ccccc2)CC1	97	99	-5	104

Complete entries from above. Order of screens: Sa growth 42C | Sa growth 42C second temp | HCMV NEC inh | GIV Gai3 FP
Cc1ccc(NC(=O)C2(NC(=O)c3ccc(-n4cnnn4)cc3)CCCCC2)cc1 is entered as 107 | 84 | -10 | .
COc1ccc2cc3c(nc2c1)N(S(=O)(=O)c1ccc(F)c(C)c1)CC3 is entered as . | . | -2 | 99
CN(C)N1C(=O)CC(n2cnc3ccccc32)C1=O (stereo unspecified) is entered as 114 | 98 | -29 | 106
COc1ccc(N2CCN(C(=O)CCNS(=O)(=O)c3ccc(Br)s3)CC2)cc1 is entered as 119 | 91 | . | 108
CCN(CC)Cc1nc2c(c(=O)[nH]1)C(CC)(CC)Cc1ccccc1-2 is entered as 111 | 71 | -15 | 103

(continued)
SMILES	Sa growth 42C	Sa growth 42C second temp	HCMV NEC inh	GIV Gai3 FP
O=C1C2(Cc3ccccc3)CN3CN(C2)CC1(Cc1ccccc1)C3	106	91	-15	102
CCOC(=O)N1CCC(NC(=O)c2ccc3c(c2)sc2nc(-c4ccc(OC)cc4)cn23)CC1	94	84	.	105
O=C(c1ncoc1-c1ccccc1)N(Cc1ccccn1)Cc1ccccn1	106	96	-2	102
CCc1ccc(/C=C2\CCc3ccccc3C2=O)cc1	94	84	.	99
CCCn1c2c(c(O)c(C(=O)Nc3ccccc3F)c1=O)CCCC2	105	75	-11	107
COc1ccc(-n2c(/C=C/c3ccccc3F)nc3cc(OC)c(OC)cc3c2=O)cc1Cl	140	84	.	105
O=C(Nc1ccsc1C(=O)O)c1ccccc1	.	.	-15	100
CCc1cc2c(cc3n2CC(C)(C(=O)NC2CCC(C)CC2)N(CCCOC(C)C)C3=O)s1 (stereo unspecified)	.	.	-8	99
O=S(=O)(NCCc1csc2nc(-c3ccccc3F)nn12)c1ccc(F)cc1	.	.	-30	102
Cc1csc(NC(=O)CCNS(=O)(=O)c2c(C)[nH]c(C)c2C(=O)N2CCCC2)n1	.	.	-36	110
CCOCCC(=O)Nc1cc(C)ccn1	100	86	-16	96
CCc1ccc2c(c1)CCCN2C(=O)c1ccccc1C(=O)O	102	82	-27	104
CC1=C/C(=N\NC(=O)c2cc(C)oc2C)CC1	95	86	-17	.
O=C(CSC1=NCCS1)NCc1ccc2c(c1)OCO2	90	87	-22	.
COc1ccc2ncc(C(=O)O)c(NCCO)c2c1	99	85	-58	96
COc1ccc(OC)c(NC(=O)CSc2nnc3ccc(C(=O)Nc4ccc(C)cc4)cn23)c1	.	.	-12	102
O=C(CN1CCSC1=O)Nc1cccc(-c2nnc3n2CCCCC3)c1	92	91	0	.
S=C(NNc1ccccc1)c1ccccc1	73	34	-8	104
Cc1nc(C(F)(F)F)nc(Sc2n[nH]c(-c3ccccc3)n2)c1C	104	83	-7	103
Cn1c(=O)c2sccc2n2c(CCC(=O)N3CCN(c4cccc(Cl)c4)CC3)nnc12	97	105	16	107
CCN1C(=O)c2ccccc2S(=O)(=O)c2ccc(C(=O)N3CCN(c4ccccc4OC)CC3)cc21	.	.	-25	100
COc1ccc(S(=O)(=O)NC2CCCCC2)cc1	92	83	.	107
NS(=O)(=O)c1ccc(-c2ccc(/C=N/NC(=O)CSc3ccccc3F)o2)cc1	12	15	-72	.
O=C(CSc1nc(O)c(C/C=C/c2ccccc2)c(=O)[nH]1)Nc1cccc(F)c1	123	77	-39	103
CCN1CCN(Cc2nc3cc(NC(=O)c4cccc([N+](=O)[O-])c4)ccc3n2CC)CC1	82	94	-90	106
CCOC(=O)NNc1nc2ccccc2o1	123	84	0	104
O=C(NCc1ccc(F)cc1)C1CCCN(c2ccc3cc(S(=O)(=O)N4CCCC4)ccc3n2)C1 (stereo unspecified)	.	.	-21	109
COc1ccc(OC)c(S(=O)(=O)N2CCN(c3nc4ccccc4n4cccc34)CC2)c1	.	.	-33	105
Cn1cc(-c2nc(-c3ccccc3)no2)c(=O)c2cc(F)c(N3CCOCC3)cc21	.	.	1	104
CCOc1ccc(C(C)(O)C(CN2CCOCC2)c2ccc(Cl)cc2)cc1 (stereo unspecified)	.	.	-8	107
COc1cccc(CNC(=O)c2cc3c(=O)[nH]c4ccccc4c3s2)c1	114	101	3	105
Cc1ccc(C)c(NC(=O)CSc2nncn3c2cc2sccc23)c1	109	89	.	107
CCOC(=O)c1cc2c(=O)n3ccccc3nc2n(CC2CCCO2)c1=NC(=O)c1cccc(C)c1 (stereo unspecified)	96	94	-72	103
CC1=CN2C(=NC(C(F)(F)F)(C(F)(F)F)N=C2c2ccco2)C=C1	98	86	-25	100
O=C(c1ccc(Br)cc1)N1CCN(CCc2ccncc2)CC1	108	97	-5&12	101&101
O=C(CCCN1C(=O)c2cccnc2Sc2ccccc21)NC1CCN(Cc2ccccc2)CC1	.	.	-24	101
COc1cccc(-c2nnc3sc(NC(C)=O)nn23)c1	91	87	.	100
COc1ccc(N2C(=O)/C(=C\c3ccc(C(C)C)cc3)C(=O)NC2=S)cc1	98	85	.	102
Cc1onc(-c2c(Cl)cccc2Cl)c1NC(=O)NCC(c1ccc[nH]1)C(F)(F)F (stereo unspecified)	89	93	-7	99
CCOc1ccc(-c2nnc3sc(-c4cccnc4)nn23)cc1	.	.	3	104
O=C(NC1CCCCC1)Oc1ccccc1-c1nnc2n1CCCCC2	97	94	-20	.
CCOC(=O)C1CCCN(C(=O)c2cc3ccccc3oc2=O)C1 (stereo unspecified)	109	91	-14	109
COc1ccc(N2CCN(c3ccc(-c4nc(-c5ccccc5C)no4)cc3[N+](=O)[O-])CC2)cc1	108	88	-15	105
CN1c2cc(Cl)ccc2-c2nc(SCC(=O)NC3CCCC3)ncc2S1(=O)=O	.	.	75*	103
Cc1ccccc1CS(=O)(=O)Cc1ccc(C(=O)NCCc2ccccc2)o1	100	79	.	99
CC(C)c1ccc2oc(-c3cc(NC(=O)c4cccnc4)ccc3Cl)nc2c1	100	82	-28	103
Cc1cc(C)c(NC(=O)Cn2nc(-c3ccncc3)ccc2=O)c(C)c1	100	82	.	100
CN(C)CCNC(=O)c1ccc(N2CCCCS2(=O)=O)cc1	102	92	-28	103
O=C(NCCc1ccccc1)c1ccc2c(c1)N(Cc1ccc(F)cc1Cl)C(=O)CS2	101	85	-10	97
CCOc1ccc(/C=C2\CC/C(=C\c3ccc(OCC)cc3)C2=O)cc1	105	89	.	105
O=C(Nc1nnc(S(=O)(=O)Nc2ccccc2)s1)c1ccccc1Cl	135	58	-16	101
Cc1ccc(Cl)cc1N1CCN(C(c2ccc(F)cc2)c2nnc(-c3ccccc3)o2)CC1 (stereo unspecified)	95	92	-7	103
CC1CN(S(=O)(=O)c2cccc(C(F)(F)F)c2)CC(C)O1 (stereo unspecified)	116	87	-2	107
COc1ccc(/C=C2\Oc3ccccc3N(CC(=O)N3CCN(c4ncccn4)CC3)C2=O)cc1Br	104	92	-32	102
Cc1ccc2cc3c(nc2c1)N(C(=O)C1CCCCC1)CC3	.	.	2	111
CC(C)n1nccc1N(Cc1ccc(Cl)cc1)S(=O)(=O)c1ccccc1	74	100	-24	.
COc1ccc(-c2c(-c3ccc(OC)c(OC)c3)c(C)n(C)c2C)cc1OC	104	81	-44	118
COc1ccc(C2=C(C)C(=O)N(Cc3ccc(C(=O)Nc4cc(C)ccc4C)cc3)S2(=O)=O)cc1	106	99	.	105
COc1ccc(/C=C2\SC(=O)N(CCNC(=O)c3cc(S(=O)(=O)N(C)C)ccc3N3CCCC3)C2=O)cc1	110	83	-56	.
O=S(=O)(NC1CC2CCC1C2)c1ccc(Cl)cc1 (stereo unspecified)	78	84	4	.

The list continues.
SMILES	Sa growth 42C	Sa growth 42C second temp	HCMV NEC inh	GIV Gai3 FP
COc1ccccc1CNc1nc2ccccc2c2nc(-c3cccnc3)nn12	104	87	-19	105
CC(C)(C)c1ccc(-c2[nH]nc(NC(=O)c3ccccc3Cl)c2Br)cc1	77	56	-24	106
NC(=O)C1CCN(C(=O)CSc2nc3ccccc3s2)CC1	107	97	-1	107
CCC(=O)Nc1ccc2nc(SCc3ccccc3)sc2c1	104	82	-23	102

Not a hit list, and some 0.85% of all compounds hit somewhere here.
